A1 apoptosis 2 – A1 inhibitors via caspase activation, primary screen, cell-based, luminescence, HTS, two replicates | MEF A1-2A-BIM cells, caspase-Glo luminescence, 3 h; percent of clofoctol response, DMSO zero | 24,000 tested, under 10 active | AID 2465, 2010 | caspase activation, % (test concentration not listed); in the data active = caspase activation above about 5.9%;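 note: wells of about 30 µL received 50 nL stock; the first replicate is given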
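Evaluation: Caspase-3/7 activity from luminescence increase | Assay system: A1-2A-BIM mouse embryonic fibroblasts | Quantity: 2500 MEF cells/well | Medium: RPMI-1640 plus 10% FBS | Detection: Caspase-Glo 3/7 luminescence, 1 h at room temperature | Dosing: 50 nL compound per well, pinned | Timing: Cells settled overnight, compound exposure 3 h at 37 °C, 5% CO2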
* hit, by the source's call. Not all compounds are listed; rates above refer to the full screens.

SMILES	A1 apoptosis 2
C[C@H](CO)N1C[C@H](C)[C@@H](CN(C)CC2CC2)Oc2c(NS(=O)(=O)c3cccs3)cccc2C1=O	-0.5
CNC[C@H]1OCCCC[C@@H](C)Oc2ccc(NC(=O)Nc3ccc(F)cc3)cc2C(=O)N([C@@H](C)CO)C[C@H]1C	-0.6
C[C@@H]1CN([C@H](C)CO)C(=O)Cc2cc(NC(=O)CCN3CCOCC3)ccc2O[C@@H]1CN(C)C(=O)Nc1cccc2ccccc12	-0.1
C[C@H]1CN([C@@H](C)CO)C(=O)c2cc(NS(=O)(=O)c3ccccc3)ccc2O[C@@H]1CN(C)S(C)(=O)=O	-1.0
C[C@H](CO)N1C[C@H](C)[C@H](CN(C)S(=O)(=O)c2ccc(Cl)cc2)Oc2c(NS(C)(=O)=O)cccc2C1=O	0.1
C[C@@H]1CCCCO[C@@H](CN(C)C(=O)Nc2ccc(F)cc2)[C@@H](C)CN([C@@H](C)CO)C(=O)c2cc(NC(=O)Nc3ccccc3)ccc2O1	1.7
COc1ccc(NC(=O)Nc2ccc3c(c2)CC(=O)N([C@H](C)CO)C[C@@H](C)[C@H](CN(C)S(=O)(=O)c2c(C)noc2C)O3)cc1	-0.9
C[C@H](CO)N1C[C@H](C)[C@@H](CN(C)C(=O)Nc2ccc(C(F)(F)F)cc2)Oc2ccc(NC(=O)C3CCCCC3)cc2CC1=O	-0.9
C#Cc1ccc([C@@H]2C=C(C(=O)OCC=C)O[C@H](OCc3ccc(CO)cc3)C2)cc1	0.2
C[C@@H]1CN([C@@H](C)CO)C(=O)c2cccc(NC(=O)C3CC3)c2O[C@@H]1CN(C)Cc1ccc(C(=O)O)cc1	-0.7
COc1ccc(S(=O)(=O)N(C)C[C@H]2OCCCC[C@H](C)Oc3ccc(NC(=O)Nc4c(C)noc4C)cc3C(=O)N([C@@H](C)CO)C[C@@H]2C)cc1	-0.7
C[C@@H]1CN([C@H](C)CO)C(=O)Cc2cc(NC(=O)Cc3ccccc3)ccc2O[C@H]1CN(C)C(=O)Nc1cccc2ccccc12	0.2
C[C@H](CO)N1C[C@H](C)[C@@H](CN(C)S(=O)(=O)c2ccccc2)Oc2ccc(N(C)C)cc2CC1=O	0.9
C[C@@H]1CN([C@@H](C)CO)C(=O)c2cccc(NC(=O)Nc3ccc(F)cc3)c2O[C@H]1CN(C)S(C)(=O)=O	-1.1
Cc1noc(C)c1S(=O)(=O)N(C)C[C@@H]1Oc2ccc(NC(=O)CCCCCC(=O)Nc3ccccc3N)cc2CC(=O)N([C@@H](C)CO)C[C@H]1C	-0.8
C[C@@H]1CCCCO[C@@H](CN(C)C(=O)Nc2ccc(C(F)(F)F)cc2)[C@H](C)CN([C@@H](C)CO)C(=O)c2cc(N(C)C)ccc2O1	0.1
C[C@@H]1CN([C@@H](C)CO)C(=O)c2cc(NC(=O)Nc3cccc4ccccc34)ccc2O[C@@H](C)CCCCO[C@H]1CN(C)Cc1ccncc1	1.1
Cc1noc(C)c1NC(=O)Nc1ccc2c(c1)C(=O)N([C@@H](C)CO)C[C@H](C)[C@@H](CN(C)Cc1ccc(Cl)c(Cl)c1)OCCCC[C@H](C)O2	0.8
C[C@H]1CN([C@@H](C)CO)C(=O)Cc2cc(NC(=O)Cn3cnnn3)ccc2O[C@H]1CN(C)C	0.0
C[C@H](CO)N1C[C@H](C)[C@@H](CN(C)CC2CCCCC2)Oc2ccc(NS(=O)(=O)c3ccc(Cl)cc3)cc2CC1=O	-0.1
C[C@@H]1CCCCO[C@@H](CN(C)C(=O)Nc2ccc(C(F)(F)F)cc2)[C@@H](C)CN([C@@H](C)CO)C(=O)c2cc(N(C)C)ccc2O1	0.6
C[C@@H]1CCCCO[C@H](CN(C)Cc2ccc(Cl)c(Cl)c2)[C@@H](C)CN([C@H](C)CO)C(=O)c2cc(NC(=O)Nc3ccc(F)cc3)ccc2O1	-0.1
C[C@H](CO)N1C[C@H](C)[C@H](CN(C)C(=O)Nc2cccc3ccccc23)Oc2ncc(-c3ccccc3)cc2C1=O	0.9
C[C@H](CO)N1C[C@H](C)[C@H](CN(C)C(=O)Nc2ccc(F)cc2)Oc2ncc(/C=C/c3ccccc3)cc2C1=O	0.8
C[C@@H]1CCCCO[C@H](CN(C)Cc2ccccc2)[C@@H](C)CN([C@@H](C)CO)C(=O)c2cc(NS(=O)(=O)c3ccc(F)cc3)ccc2O1	1.0
(continued)
SMILES	A1 apoptosis 2
C[C@H]1CN([C@@H](C)CO)C(=O)CCCn2cc(nn2)CO[C@H]1CN(C)Cc1cccc2c1OCCCO2	-0.4
C[C@H](CO)N1C[C@H](C)[C@@H](CN(C)C(=O)CCCN(C)C)OCc2cn(nn2)CCCC1=O	0.1
C[C@@H]1CN([C@H](C)CO)C(=O)c2cc(NC(=O)Cc3ccccc3)ccc2O[C@H]1CN(C)Cc1ccc(C(F)(F)F)cc1	0.2
C[C@@H]1CN([C@@H](C)CO)C(=O)Cc2cc(NC(=O)c3ccncc3)ccc2O[C@@H]1CN(C)S(=O)(=O)c1ccccc1	-0.5
COc1ccc(S(=O)(=O)N(C)C[C@H]2Oc3c(NC(=O)c4cc(C)nn4C)cccc3C(=O)N([C@H](C)CO)C[C@@H]2C)cc1	-0.4
C[C@H](CO)N1C[C@H](C)[C@@H](CN(C)S(=O)(=O)c2cn(C)cn2)Oc2ccc(NC(=O)Nc3ccccc3)cc2CC1=O	1.5
Cc1noc(C)c1S(=O)(=O)Nc1ccc2c(c1)C(=O)N([C@H](C)CO)C[C@@H](C)[C@H](CN(C)C(=O)CCC(F)(F)F)OCCCC[C@@H](C)O2	0.6
C[C@@H]1CN([C@H](C)CO)C(=O)Cc2cc(NC(=O)Nc3cccc4ccccc34)ccc2O[C@@H]1CN(C)C(=O)Nc1ccc2c(c1)OCO2	0.9
C[C@H]1CN([C@@H](C)CO)C(=O)CCCn2nncc2CO[C@H]1CN(C)CC1CC1	2.3
C[C@@H]1CN([C@@H](C)CO)C(=O)Cc2cc(NS(=O)(=O)c3ccc(Cl)cc3)ccc2O[C@H]1CN(C)Cc1ccc(Cl)c(Cl)c1	-1.5
CC(C)NC(=O)N(C)C[C@@H]1Oc2ccc(NC(=O)C3CC3)cc2CC(=O)N([C@@H](C)CO)C[C@@H]1C	-1.1
C[C@@H]1CCCCO[C@H](CN(C)C(=O)Nc2cccc3ccccc23)[C@@H](C)CN([C@H](C)CO)C(=O)c2cc(NS(C)(=O)=O)ccc2O1	-0.9
C[C@H]1CN([C@@H](C)CO)C(=O)c2cccc(NC(=O)C3CCCCC3)c2O[C@@H]1CN(C)Cc1ccc(C(=O)O)cc1	-0.9
C[C@H]1CN([C@@H](C)CO)C(=O)Cc2cc(NC(=O)Cn3cnnn3)ccc2O[C@H]1CN(C)Cc1ccc(C(F)(F)F)cc1	-1.5
Cc1noc(C)c1NC(=O)Nc1ccc2c(c1)CC(=O)N([C@@H](C)CO)C[C@H](C)[C@H](CN(C)C(=O)Nc1c(C)noc1C)O2	-1.9
C[C@H](CO)N1C[C@H](C)[C@@H](CN(C)S(=O)(=O)c2cn(C)cn2)Oc2ccc(NS(C)(=O)=O)cc2C1=O	-0.7
NC(=O)C1=C[C@H](c2ccc(Br)cc2)C[C@H](OCc2ccc(CO)cc2)O1	-0.3
C[C@H]1CN([C@@H](C)CO)C(=O)c2cccc(NS(C)(=O)=O)c2O[C@H]1CN(C)Cc1ccc(Oc2ccccc2)cc1	1.8
C[C@H](CO)N1C[C@H](C)[C@H](CN(C)Cc2ccc(C(=O)O)cc2)Oc2ccc(NC(=O)Nc3ccc4c(c3)OCO4)cc2CC1=O	-0.2
C[C@H]1CN([C@@H](C)CO)C(=O)c2cccc(N(C)C)c2O[C@@H]1CN(C)Cc1ccc(C(=O)O)cc1	0.0
Cc1noc(C)c1NC(=O)Nc1cccc2c1O[C@H](CN(C)C(=O)Nc1ccccc1)[C@@H](C)CN([C@@H](C)CO)C2=O	-0.2
C[C@@H]1CN([C@H](C)CO)C(=O)c2cc(NS(=O)(=O)c3cccs3)ccc2O[C@@H](C)CCCCO[C@H]1CN(C)Cc1ccc(C(F)(F)F)cc1	-0.6
Cc1ccc(S(=O)(=O)N(C)C[C@@H]2Oc3ccc(NC(=O)Nc4ccc5c(c4)OCO5)cc3CC(=O)N([C@@H](C)CO)C[C@H]2C)cc1	0.2
Cc1cccc(S(=O)(=O)N(C)C[C@H]2OCc3cnnn3CCCC(=O)N([C@@H](C)CO)C[C@H]2C)c1	-0.9
C[C@H](CO)N1C[C@H](C)[C@H](CN(C)S(=O)(=O)c2cccs2)Oc2c(NS(=O)(=O)c3ccc(Cl)cc3)cccc2C1=O	-0.4
Next section.
SMILES	A1 apoptosis 2
C[C@@H]1CN([C@H](C)CO)C(=O)c2cc(NC(=O)Nc3ccc(C(F)(F)F)cc3)ccc2O[C@H]1CN(C)C(=O)Nc1cccc2ccccc12	-2.4
C[C@@H]1CN([C@H](C)CO)C(=O)c2cccc(NC(=O)C3CCOCC3)c2O[C@H]1CN(C)CC1CCCCC1	0.9
C[C@H](CO)N1C[C@H](C)[C@@H](CN(C)C(=O)Nc2ccc(F)cc2)Oc2ccc(NS(=O)(=O)c3ccc(F)cc3)cc2CC1=O	0.0
C[C@H]1CN([C@@H](C)CO)C(=O)Cc2cc(NS(=O)(=O)c3cccs3)ccc2O[C@H]1CN(C)S(=O)(=O)c1cccs1	-1.3
C[C@H]1CN([C@@H](C)CO)C(=O)Cc2cc(NC(=O)Cc3ccccc3)ccc2O[C@@H]1CN(C)S(=O)(=O)c1cn(C)cn1	-1.1
COc1ccc(NC(=O)Nc2ccc3c(c2)CC(=O)N([C@H](C)CO)C[C@H](C)[C@@H](CN(C)S(=O)(=O)c2ccc(F)cc2)O3)cc1	0.9
C#CCNC(=O)C1=C[C@H](c2ccc(Br)cc2)C[C@H](OCCCCO)O1	0.5
C[C@H](CO)N1C[C@H](C)[C@@H](CN(C)S(=O)(=O)c2ccc(Cl)cc2)Oc2ccc(NS(=O)(=O)c3cccs3)cc2CC1=O	-1.0
CN(C)CCCOc1ccc(/C=N/NC(=O)c2ccccn2)cc1	-4.6
C[C@@H]1CN([C@H](C)CO)C(=O)Cc2cc(NC(=O)C3CCCCC3)ccc2O[C@@H]1CN(C)S(=O)(=O)c1cccs1	-1.8
C[C@@H]1CN([C@@H](C)CO)C(=O)c2cc(NC(=O)Nc3ccc(F)cc3)ccc2O[C@H]1CN(C)C	-1.0
Cc1ccc(S(=O)(=O)Nc2ccc3c(c2)C(=O)N([C@H](C)CO)C[C@@H](C)[C@@H](CN(C)Cc2ccc(-c4ccccc4)cc2)O3)cc1	3.0
C[C@@H]1CN([C@H](C)CO)C(=O)c2cccc(NS(=O)(=O)c3ccccc3)c2O[C@H]1CN(C)C	0.5
C[C@@H]1CCCCO[C@@H](CN(C)C(=O)Nc2ccccc2)[C@H](C)CN([C@@H](C)CO)C(=O)c2cc(NS(=O)(=O)c3ccc(F)cc3)ccc2O1	-0.5
COc1ccc(S(=O)(=O)Nc2cccc3c2O[C@@H](CN(C)Cc2ccc(C(=O)O)cc2)[C@@H](C)CN([C@@H](C)CO)C3=O)cc1	0.2
C[C@H]1CCCCO[C@H](CN(C)C(=O)Nc2ccc3c(c2)OCO3)[C@@H](C)CN([C@@H](C)CO)C(=O)c2cc(NS(C)(=O)=O)ccc2O1	0.3
C[C@@H]1CCCCO[C@@H](CN(C)S(=O)(=O)c2cn(C)cn2)[C@@H](C)CN([C@@H](C)CO)C(=O)c2cc(NC(=O)CCCN(C)C)ccc2O1	-0.2
C[C@@H]1CN([C@H](C)CO)C(=O)c2cc(NS(=O)(=O)c3cccs3)ccc2O[C@H]1CN(C)Cc1ccc(C(=O)Nc2ccccc2N)cc1	0.5
COc1ccc(NC(=O)N(C)C[C@@H]2Oc3ccc(NC(=O)Nc4ccc(C(F)(F)F)cc4)cc3C(=O)N([C@@H](C)CO)C[C@H]2C)cc1	2.3
C[C@@H]1CN([C@@H](C)CO)C(=O)c2cc(NC(=O)Nc3ccc4c(c3)OCO4)ccc2O[C@H]1CN(C)Cc1ccc(Oc2ccccc2)cc1	1.2
C[C@@H]1CN([C@@H](C)CO)C(=O)Cc2cc(N(C)C)ccc2O[C@@H]1CN(C)Cc1ccc(Cl)c(Cl)c1	-0.6
COc1ccc(NC(=O)Nc2ccc3c(c2)C(=O)N([C@@H](C)CO)C[C@@H](C)[C@H](CN(C)C)OCCCC[C@H](C)O3)cc1	-0.2

For reference, some entries already given:
SMILES	A1 apoptosis 2
C[C@@H]1CN([C@H](C)CO)C(=O)c2cc(NC(=O)Nc3ccc(C(F)(F)F)cc3)ccc2O[C@H]1CN(C)C(=O)Nc1cccc2ccccc12	-2.4
C[C@@H]1CN([C@H](C)CO)C(=O)c2cccc(NC(=O)C3CCOCC3)c2O[C@H]1CN(C)CC1CCCCC1	0.9
C[C@H](CO)N1C[C@H](C)[C@@H](CN(C)C(=O)Nc2ccc(F)cc2)Oc2ccc(NS(=O)(=O)c3ccc(F)cc3)cc2CC1=O	0.0
C[C@H]1CN([C@@H](C)CO)C(=O)Cc2cc(NS(=O)(=O)c3cccs3)ccc2O[C@H]1CN(C)S(=O)(=O)c1cccs1	-1.3
C[C@H]1CN([C@@H](C)CO)C(=O)Cc2cc(NC(=O)Cc3ccccc3)ccc2O[C@@H]1CN(C)S(=O)(=O)c1cn(C)cn1	-1.1
COc1ccc(NC(=O)Nc2ccc3c(c2)CC(=O)N([C@H](C)CO)C[C@H](C)[C@@H](CN(C)S(=O)(=O)c2ccc(F)cc2)O3)cc1	0.9
C#CCNC(=O)C1=C[C@H](c2ccc(Br)cc2)C[C@H](OCCCCO)O1	0.5
C[C@H](CO)N1C[C@H](C)[C@@H](CN(C)S(=O)(=O)c2ccc(Cl)cc2)Oc2ccc(NS(=O)(=O)c3cccs3)cc2CC1=O	-1.0
CN(C)CCCOc1ccc(/C=N/NC(=O)c2ccccn2)cc1	-4.6
